# BmaI1 = BmaI1 acyl-homoserine lactone synthase inhibition – biochemical, fluorescence intensity, with counterscreen (AID 720554) | BmaI1 enzyme assay, fluorescence intensity; stronger effect = higher value; test concentration not given here; a few actives read low; strong numbers were not always called active | inhibition, % | actives 0.4% (n = 12,000);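 active = both replicates within 2 robust z-scores of the inhibited control and a quiet counterscreen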;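 note: 0% = uninhibited enzyme and 100% = inhibited control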
# BmaI1 counterscreen = further read-out of BmaI1, marked with its call; inhibition, %; measured here: counterscreen; design of the counterscreen not given here;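 first of two replicates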
# * = called active by the depositor. Some of the compounds tested; count on the stated rates, not on these rows.
# The first 26 records (preview)
# Values run as follows: BmaI1	BmaI1 counterscreen
> CN(C)C(CNS(=O)(=O)c1ccc2c(c1)OCCO2)c1ccco1 (centres undefined)
 : -2	0
> c1ccc(OCc2nn[nH]n2)cc1
 : 12	6
> CC1(C)C2CC=C(COCC(O)CNCc3ccccn3)C1C2 (centres undefined)
 : 4	-18
> Cn1c(=S)[nH]c2ccccc21
 : 52	5
> O=S(=O)(c1ccccc1)N(C1=NCCS1)S(=O)(=O)c1ccccc1
 : 9	4
> Cc1ccc(/C=C/C(=O)OCC(=O)c2cc(C)c(C)cc2C)o1
 : 14	11
> Cn1nnnc1SCC(=O)N1CCCC1c1ccc2c(c1)OCCCO2 (centres undefined)
 : 1	-2
> COC(=O)c1nnc2nc(-c3ccc(Cl)cc3)cc(C)n12
 : 6	4
> CN(C)C(=O)CSc1nc2ccccc2s1
 : 28	-2
> CC(=O)N1CC(C(=O)Nc2cccc(-c3nnc4n3CCCCC4)c2)Oc2ccccc21 (centres undefined)
 : 16	6
> Cc1ccc2c(CSc3nnc4ccccn34)cc(=O)oc2c1
 : 19	12
> CCCn1c(N)c(N(C)C)c(=O)n(CC(=O)Nc2ccc(OC(F)(F)F)cc2)c1=O
 : 44	28
> O=C(c1ccc(S(=O)(=O)N2CCCCCC2)cc1)N(c1ccccn1)c1ccccn1
 : 2	-2
> Cc1cc(C(=O)CSc2nc3ccccc3c(=O)[nH]2)c(C)n1-c1ccc2c(c1)OCO2
 : 22	15
> COCC(C)n1c(C)cc(C(=O)COC(=O)c2ccc(S(=O)(=O)N3CCCC3)cc2)c1C (centres undefined)
 : 10	0
> CC(C)N(Cc1ccccc1)C(=O)Cn1c(=O)cnc2ccccc21
 : 2	5
> COC(=O)/C(C#N)=C/c1cc(C)n(CC(C)C)c1C
 : 11	4
> O=C(COc1nncc2ccccc12)NCCC1=CCCCC1
 : 13	0
> Cc1nc(Cc2nnc(SCc3cc(=O)oc4cc(C)c(C)cc34)o2)cs1
 : 19	8
> O=S(=O)(c1cccs1)N(Cc1ccccc1)S(=O)(=O)c1ccccc1F
 : 4	4
> CCOc1ncccc1C(=O)Oc1ccc(C(=O)OC)cc1OC
 : 12	6
> Cn1ccnc1P(=S)(c1nccn1C)N1CCOCC1
 : 70	10
> Cc1cc(C(=O)Oc2ccccc2Cc2ccccc2)on1
 : 15	12
> CCOC(=O)c1cnc(SCC(=O)OCC(=O)Nc2sc3c(c2C#N)CCC3)nc1N
 : 31	12
> CCn1c(-c2ccccc2)cnc1SCC(=O)N(C)C1(C#N)CCCCC1
 : 13	6
> Cc1ccc(C)c(NC(=O)Cc2nc(CSc3nnc(-c4cccs4)o3)cs2)c1
 : 14	2

# The whole of this part, previewed entries included:
# Values run as follows: BmaI1	BmaI1 counterscreen
> CN(C)C(CNS(=O)(=O)c1ccc2c(c1)OCCO2)c1ccco1 (centres undefined)
 : -2	0
> c1ccc(OCc2nn[nH]n2)cc1
 : 12	6
> CC1(C)C2CC=C(COCC(O)CNCc3ccccn3)C1C2 (centres undefined)
 : 4	-18
> Cn1c(=S)[nH]c2ccccc21
 : 52	5
> O=S(=O)(c1ccccc1)N(C1=NCCS1)S(=O)(=O)c1ccccc1
 : 9	4
> Cc1ccc(/C=C/C(=O)OCC(=O)c2cc(C)c(C)cc2C)o1
 : 14	11
> Cn1nnnc1SCC(=O)N1CCCC1c1ccc2c(c1)OCCCO2 (centres undefined)
 : 1	-2
> COC(=O)c1nnc2nc(-c3ccc(Cl)cc3)cc(C)n12
 : 6	4
> CN(C)C(=O)CSc1nc2ccccc2s1
 : 28	-2
> CC(=O)N1CC(C(=O)Nc2cccc(-c3nnc4n3CCCCC4)c2)Oc2ccccc21 (centres undefined)
 : 16	6
> Cc1ccc2c(CSc3nnc4ccccn34)cc(=O)oc2c1
 : 19	12
> CCCn1c(N)c(N(C)C)c(=O)n(CC(=O)Nc2ccc(OC(F)(F)F)cc2)c1=O
 : 44	28
> O=C(c1ccc(S(=O)(=O)N2CCCCCC2)cc1)N(c1ccccn1)c1ccccn1
 : 2	-2
> Cc1cc(C(=O)CSc2nc3ccccc3c(=O)[nH]2)c(C)n1-c1ccc2c(c1)OCO2
 : 22	15
> COCC(C)n1c(C)cc(C(=O)COC(=O)c2ccc(S(=O)(=O)N3CCCC3)cc2)c1C (centres undefined)
 : 10	0
> CC(C)N(Cc1ccccc1)C(=O)Cn1c(=O)cnc2ccccc21
 : 2	5
> COC(=O)/C(C#N)=C/c1cc(C)n(CC(C)C)c1C
 : 11	4
> O=C(COc1nncc2ccccc12)NCCC1=CCCCC1
 : 13	0
> Cc1nc(Cc2nnc(SCc3cc(=O)oc4cc(C)c(C)cc34)o2)cs1
 : 19	8
> O=S(=O)(c1cccs1)N(Cc1ccccc1)S(=O)(=O)c1ccccc1F
 : 4	4
> CCOc1ncccc1C(=O)Oc1ccc(C(=O)OC)cc1OC
 : 12	6
> Cn1ccnc1P(=S)(c1nccn1C)N1CCOCC1
 : 70	10
> Cc1cc(C(=O)Oc2ccccc2Cc2ccccc2)on1
 : 15	12
> CCOC(=O)c1cnc(SCC(=O)OCC(=O)Nc2sc3c(c2C#N)CCC3)nc1N
 : 31	12
> CCn1c(-c2ccccc2)cnc1SCC(=O)N(C)C1(C#N)CCCCC1
 : 13	6
> Cc1ccc(C)c(NC(=O)Cc2nc(CSc3nnc(-c4cccs4)o3)cs2)c1
 : 14	2
> Cc1sc2nc(CSC(C)C(=O)Nc3ccc(N4CCN(C)CC4)cc3)[nH]c(=O)c2c1C (centres undefined)
 : 74	2
> Cc1ccc(OCC(=O)Nc2ccc3c(c2)OCO3)c(C(=O)c2cc(C#N)c(=O)n(C3CC3)c2)c1
 : -8	-12
> C=CCNC(=O)c1c(N)n(-c2ccc(C)cc2)c2nc3ccccc3nc12
 : 4	10
> COCCCn1cnnc1SCC(=O)Nc1ccc(C)c(C)c1
 : 5	2

# Already shown: entries from further up.
# Values run as follows: BmaI1	BmaI1 counterscreen
> O=C(c1ccc(S(=O)(=O)N2CCCCCC2)cc1)N(c1ccccn1)c1ccccn1
 : 2	-2
> Cc1cc(C(=O)CSc2nc3ccccc3c(=O)[nH]2)c(C)n1-c1ccc2c(c1)OCO2
 : 22	15

# Continued.
# Values run as follows: BmaI1	BmaI1 counterscreen
> CCCc1cc(=O)[nH]c(SCC(=O)N2CCN(S(=O)(=O)c3ccccc3)CC2)n1
 : 14	6
> Cc1ccc2nc(Cn3cc(S(=O)(=O)N4CCCC4)ccc3=O)cn2c1
 : 20	12
> CCN1CCN(C(=O)C(C)Sc2nnc(-c3ccncc3)n2-c2ccccc2C)CC1 (centres undefined)
 : 32	6
> Cc1ccc(C)n1-c1ccc(C(=O)Nc2nccs2)cc1
 : 4	-38
> Cc1cc(C(=O)COC(=O)C2=COCCO2)c(C)n1-c1ccccc1
 : 20	8
> N#Cc1ccccc1COC(=O)CNC(=O)c1ccccc1
 : 34	10
> CC(=O)N(C(C)=O)c1ccc2c(c1)C(C)(C)C(C)N2C (centres undefined)
 : 14	2
> CC1CC(C)(C)Cc2c1sc(NC(=O)c1ccco1)c2C#N (centres undefined)
 : 18	2
> CC1CCC/C(=N/NC(=O)c2c[nH]c3ccccc23)C1 (centres undefined)
 : 80	22
> O=C(OCC(=O)N1CCCC1=O)c1ccc2c(c1)OCO2
 : 6	7
> CCCn1c(N)c(C(=O)CN(C)CC(=O)Nc2ccc(Cl)cc2)c(=O)[nH]c1=O
 : 16	9
> Cc1ccc(C)c(OCCCC(C)(C)C(=O)O)c1
 : 16	30
> CCC(=O)Nc1ccc(C2=NNC(=NCCN3CCOCC3)SC2)cc1
 : 54	11
> CCN(CC)C(=O)c1cccc(NC(=O)Cc2coc3cc(C)ccc23)c1
 : 18	7
> CC(C)Cn1nc(C(N)=O)c2ccccc2c1=O
 : -1	-6
> O=C(COc1ncnc2ccc(Br)cc12)N1CCCCC1
 : 4	4
> CCOC(=O)c1c(NC(=O)Cn2cnc3sccc3c2=O)sc(C)c1CC
 : 20	14
> COc1ccc(/C=C2/C(=O)N(Cc3ccccc3)N=C2C)cc1
 : 64	12
> C=CCn1c(N)c(C(=O)OCC)c2nc3ccccc3nc21
 : 26	-2
> Cn1ccsc1=NC(=O)/C=C/c1ccccc1F
 : 14	0
> O=C(NC1CC1)c1cc(S(=O)(=O)N2CCCCC2)ccc1N1CCOCC1
 : 11	4
> CSCCC(=O)Nc1cc(S(C)(=O)=O)ccc1Cl
 : 15	1
> Cc1ccc(/C=N/NC(=O)c2ccccc2NS(=O)(=O)c2cccs2)o1
 : 14	8
> O=C(COC(=O)c1ccccn1)NC1CCCc2ccccc21 (centres undefined)
 : 8	0
> Cc1nc(=O)c(-c2ccccc2)c(C)n1CC1CCCO1 (centres undefined)
 : 11	7
> O=C(OC1CCCCC1=O)c1ccc2c(c1)OCO2 (centres undefined)
 : 11	-2
> O=C(CN1CCN(S(=O)(=O)c2cccs2)CC1)Nc1ccccc1Oc1ccccc1
 : 12	0
> O=C(Nc1cccnc1)C(c1ccccc1)c1ccccc1
 : 20	19
> O=C(O)Cc1ccc2c(c1)[nH]c1ccccc12
 : 10	16
> Cc1nc(N)sc1C
 : 74	50
> O=C(Cc1n[nH]c(=O)c2ccccc12)OCc1cc(=O)n2cc(Br)ccc2n1
 : -7	-6
> CCC(=O)c1ccc(OCC(=O)NC2(C#N)CCCCC2)cc1
 : 2	3
> COc1ccc(NCC(=O)N/N=C/C2=CCC3CC2C3(C)C)cc1 (centres undefined)
 : 56	12
> O=C(Cn1c(=O)oc2ccccc21)N(C1CCCCC1)C1CCCCC1
 : -6	-4
> O=C(Nc1ccnn1Cc1ccccc1)c1cccnc1SC(F)F
 : 12	6
> CC(C)n1nccc1/N=C1\N=C(N)c2ccccc21
 : 8	12
> COc1ccccc1NC(=O)[C@H](Cc1ccccc1)NC(=O)c1ccco1
 : 18	14
> Fc1ccc(-c2cnc(CSc3nnc(-c4ccccc4)n3-c3ccc(F)cc3)o2)cc1
 : 14	11
> CCS(=O)(=O)c1ccc2oc(NCCc3ccc(F)cc3)nc2c1
 : 3	0
> CN(/C=C1\CCCCC1=O)C1CCCCC1
 : 11	0

# Screening data as filed in PubChem.
